Screens: PubChem BioAssay, Southern Research Specialized Biocontainment Screening Center
quorum sensing – Vibrio cholerae quorum sensing activators, luminescence (AID 686977); V. cholerae quorum sensing reporter, luminescence, 6 h; higher luminescence means a stronger effect; most inactives read 0; 9,400 tested, under 10 active; luminescence at 50 µM unless noted; hits with a dose series show EC50 in µM;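 active = light above mean plus 3 SD and confirmed in a dose series; inconclusive = above that limit without a clear retest; inactive = below it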;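 also: raw light counts without normalisation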
* hit, by the source's call; ? = inconclusive; [ ] = remark or other dose. Only part of the results is shown. The share of hits here may be higher or lower than overall.

The first 5 compounds (preview)
SMILES	quorum sensing
CCN(CC)CCCN(Cc1cc2cc(OC)ccc2[nH]c1=O)C(=O)Nc1ccc(F)cc1	0
Clc1ccc(OCc2nn3c(-c4ccco4)nnc3s2)c(Cl)c1	40
CC1=CC(=O)c2ccccc2C1=O	40[10 µg/mL]
Cc1cc(C)nc(N(C#N)Cc2ccccc2Cl)n1	40
CCOC(=O)N1CCN(C(=O)C(C)N(c2ccc(Oc3ccccc3)cc2)S(C)(=O)=O)CC1 (stereo unspecified)	0

All compounds of this part, previewed entries included:
SMILES	quorum sensing
CCN(CC)CCCN(Cc1cc2cc(OC)ccc2[nH]c1=O)C(=O)Nc1ccc(F)cc1	0
Clc1ccc(OCc2nn3c(-c4ccco4)nnc3s2)c(Cl)c1	40
CC1=CC(=O)c2ccccc2C1=O	40[10 µg/mL]
Cc1cc(C)nc(N(C#N)Cc2ccccc2Cl)n1	40
CCOC(=O)N1CCN(C(=O)C(C)N(c2ccc(Oc3ccccc3)cc2)S(C)(=O)=O)CC1 (stereo unspecified)	0
CC(=O)[C@H]1CC[C@H]2[C@@H]3CC[C@H]4C[C@H](O)CC[C@]4(C)[C@H]3C(=O)C[C@]12C	0[10 µg/mL]
O=C(NCc1ccco1)c1cc2nc(-c3ccc4c(c3)OCO4)cc(C(F)(F)F)n2n1	0
CCn1c(=S)[nH]c2ccccc21	40
C=C(C)CSc1nnc(CCNC(=O)OC(C)(C)C)o1	0
CC1Cc2ccccc2N1C(=O)c1cc2c(=O)n3ccccc3nc2n1C (stereo unspecified)	0
CC1/C=C/C=C/CC/C=C/C=C/C=C/C=C/C(O[C@@H]2O[C@H](C)[C@@H](O)[C@H](N)[C@@H]2O)CC(O)C(C(=O)O)C(O)CC(=O)CC(O)C(O)CCC(O)CC(O)CC(O)CC(=O)OC(C)C(C)C1O (stereo partly specified)	0[10 µg/mL]
CCCCNC(=S)N(C)/N=C/c1ccccc1C(=O)O	40
c1ccc(-n2nnnc2NCCCN2CCOCC2)cc1	0
Cc1csc(NC(=O)C2CCC(C)(C(=O)O)C2(C)C)n1 (stereo unspecified)	0
Cc1ccc2nc(Cc3ccc(N)cc3)oc2c1	?
Cn1cccc1Cc1nnc(SCC(=O)NCc2ccccc2Cl)n1-c1ccc(F)cc1	40
CN(C)CCN(Cc1ccc(Cl)cc1)c1ccccn1	0[10 µg/mL]
COC(=O)c1cc(COc2ccc3c4c(c(=O)oc3c2)CCCC4)c(C)o1	0
Cc1cccc(Nc2ncccc2C(=O)O)c1C	280
COc1ccc(/C=N/NC(=O)c2nonc2C)cc1	0
CC12CC(NC(=O)N1CCc1ccccc1)c1ccccc1O2 (stereo unspecified)	?
C=CC(C)Sc1nc2c(c(=O)n(C)c(=O)n2C)n1Cc1ccccc1Cl (stereo unspecified)	0
CCSc1sccc1C1C(C#N)=C(N)N(c2cccnc2)C2=C1C(=O)CCC2 (stereo unspecified)	0
CN(CC(=O)NC1CCCc2ccccc21)S(=O)(=O)c1ccc2c(c1)c(=O)n(C)c(=O)n2C (stereo unspecified)	?
O=C(CSc1cn(CCNC(=O)c2cccs2)c2ccccc12)NC1CCCCC1	0
Cn1cccc1C(=O)NC(=O)COC(=O)CC12CC3CC(CC(Br)(C3)C1)C2	40
O=C(CN1C(=O)CCSc2ccccc21)Nc1ccc2c(c1)OCCO2	0
CC(=O)Nc1nc2ccccc2n1CCN(C)C	40
O=S(=O)(Nc1nc2ccccc2s1)c1ccc(Cl)s1	0
CCOC(=O)C1CCN(c2c(NC3CCCc4ccccc43)c(=O)c2=O)CC1 (stereo unspecified)	240
Cc1ccc(C)c(N=Nc2nc3ccccc3n2C)c1	0
O=C(CSc1nc2c(c(=O)n1-c1ccc(Br)cc1)SCC2)NCc1ccco1	0
Cc1ccc(C(=O)O/N=C\c2ccc(N3CCCCC3)c([N+](=O)[O-])c2)cc1	0
O=C(CCCc1c[nH]c2ccccc12)NCc1ccc2c(c1)OCO2	40
O=C(CSc1nnc2ccccn12)c1ccc2c(c1)OCCO2	0
O=C(NC(=O)c1cccc(Cl)c1)OC[C@@H]1CCCN2CCCCC12 (stereo partly specified)	0
O=C(NCc1cn2ccccc2n1)c1ccco1	0
CCOC(=O)c1sc2ccccc2c1OC(=O)c1ccccc1	0
COc1ccc2ccccc2c1C1CC(=O)N2CN(Cc3ccco3)CSC2=C1C#N (stereo unspecified)	40
CCOC(=O)CN1C(=O)C(C)(C)Oc2ccc(C(=O)NC(C)(C)CC)cc21	40
O=C(Cn1nc(Cc2cccnc2)c2ccccc2c1=O)NCc1ccc(F)cc1	0
CC(=O)Nc1ccc(S(=O)(=O)N2CCN(CC(O)COc3ccc4ccccc4c3)CC2)cc1 (stereo unspecified)	?
O=C(C1CC(=O)N(C2CCCC2)C1)N1CCN(c2ccccc2F)CC1 (stereo unspecified)	0
O=C(CCCN1CCC(O)(c2ccc(Cl)cc2)CC1)c1ccc(F)cc1	0[10 µg/mL]
O=C1c2ccccc2C(Nc2ccc3c(c2)OCCO3)N1Cc1ccc2c(c1)OCO2 (stereo unspecified)	0
COCCn1c(CN2CCN(C)CC2)nc2c1c(=O)n(C)c(=O)n2C	0
CCCn1c(CCC(=O)O)ccc1-c1cccs1	0
CCCCC[C@H](O)/C=C/[C@@H]1[C@@H](C/C=C/CCCC(=O)O)[C@@H](O)C[C@H]1O	?
O=C(O)CN=C(NS(=O)(=O)c1ccc(Cl)cc1)c1ccccc1	80
CCC(C)Sc1nc2c(cnn2-c2ccc(C)c(C)c2)c(=O)[nH]1 (stereo unspecified)	40

(next part)
SMILES	quorum sensing
COc1ccc(C2=Nn3c(nnc3C3CCCCC3)SC2)cc1OC	0
N#Cc1c(NC(=O)COC(=O)C2CC3C=CC2C3)oc(-c2ccccc2)c1-c1ccccc1 (stereo unspecified)	0
O=C(COc1ccc(S(=O)(=O)NC2CCCCC2)cc1Cl)Nc1ccc2c(c1)OCO2	40
COc1ccccc1NS(=O)(=O)c1cc([N+](=O)[O-])ccc1N/N=C/c1c(C)[nH]c2ccccc12	0
CC(C)COC(=O)C1C2C=CC3(CN(C(C)c4ccc(Br)cc4)C(=O)C13)O2 (stereo unspecified)	0
NCCCC[C@H](N[C@@H](CCc1ccccc1)C(=O)O)C(=O)N1CCC[C@H]1C(=O)O	40[10 µg/mL]
COc1ccc(-n2c(=O)[nH]cc(C(=O)Nc3ccccc3)c2=O)cc1	0
CCC(C)C1C(C#N)=C(N)OC2=C1C(=O)CC(C)(C)C2 (stereo unspecified)	0
CC(C)c1ccc(C(=O)CSc2ncn[nH]2)cc1	0
CN(C)CCCN1C(=O)C(=O)/C(=C(/O)c2ccncc2)C1c1cccc(Br)c1 (stereo unspecified)	0
CCOc1ccccc1NC(=O)CSc1nnc(Cc2cccn2C)n1-c1ccc(F)cc1	0
CNCCc1ccccn1	40[10 µg/mL]
O=C(NCc1cccnc1)c1ccc(Cl)cc1[N+](=O)[O-]	40
O=C(Nc1ccccc1)c1ccc2nsnc2c1	0
CC1Cc2nc(SCC(=O)NCc3ccccc3)n(Cc3ccccc3)c(=O)c2S1 (stereo unspecified)	0
CCCN1CCN(S(=O)(=O)c2ccc(OC)c(Br)c2)CC1	0
O=C(NC1CCCCCCC1)c1ccc(CNc2c(N3CCOCC3)c(=O)c2=O)cc1	?
COc1ccc2c(c1)[nH]c1c(=O)n(CCCn3ccnc3)cnc12	0
COC(=O)/C=c1/s/c(=C(/C#N)C(=O)NCc2ccccc2)n(-c2ccccc2)c1=O	40
O=C(c1ccccc1)N1CCN(c2ccc([N+](=O)[O-])c(NCc3ccco3)c2)CC1	800
O=C(O)C1CC=CCC1C(=O)Nc1ccccc1 (stereo unspecified)	0
CCN(CC)C(=O)N[C@H]1C=C2c3cccc4[nH]cc(c34)C[C@H]2N(C)C1	0[10 µg/mL]
CC#CP(=O)(OCC)C(O)(c1ccccc1)C(F)(F)F (stereo unspecified)	200
COc1cccc(-c2csc(N3CCN(S(=O)(=O)c4ccc(F)cc4)CC3)n2)c1	40
Cn1cccc1Cc1nnc(SCC(=O)NCCc2ccccc2)n1-c1ccc(F)cc1	40
Cc1cccc(CC(=O)Nc2cc(C)c3c(=O)oc4ccccc4c3n2)c1	0
Cc1nc2sc(C(c3ccccc3)N3CCN(c4ccccc4F)CC3)c(O)n2n1 (stereo unspecified)	40
Cc1ccc2oc(=O)c3cnn(CC(=O)NC4CCN(Cc5ccccc5)CC4)c3c2c1	0
COc1ccc(C(=O)Nc2cc(C(F)(F)F)ccc2Cl)cc1OC	0
CN=C(Nc1cc(Cl)ccc1Cl)SC1CC(=O)N(c2ccc(C(=O)OC)cc2)C1=O (stereo unspecified)	40
Cc1[nH]c2ccc(OC(=O)N3CCOCC3)cc2c1C(=O)OC(C)C	0
Cc1ccc(-n2nnc3c(=O)n(CC(=O)N4CCOCC4)cnc32)cc1	0
CC(C)C(NC(=O)C(c1ccccc1)c1ccccc1)c1nc2ccccc2[nH]1 (stereo unspecified)	0
c1coc(-c2nc3nc4ccccc4nc3n2CC2CCCO2)c1 (stereo unspecified)	0
COc1ccc(S(=O)(=O)NC(CC(=O)NCc2ccc3c(c2)OCO3)c2ccco2)cc1 (stereo unspecified)	0
Cc1ccc(NC(=O)CN2CCc3ccccc3C2)cc1	0
O=C(NCCc1ccc(Cl)cc1)C1CCC(=O)N1Cc1ccc(F)cc1 (stereo unspecified)	0
CC(NC(=O)Nn1cnnc1)(C(F)(F)F)C(F)(F)F	0
COc1cc(C(=O)Nc2sc3c(c2C#N)CCN(C(C)=O)C3)cc(OC)c1OC	240
CC1CS(=O)(=O)CCN1N=Cc1ccc([N+](=O)[O-])o1 (stereo unspecified)	0[10 µg/mL]

Grouped by structure, the entries above with a furan ring, fused or not
SMILES	quorum sensing
Clc1ccc(OCc2nn3c(-c4ccco4)nnc3s2)c(Cl)c1	40
O=C(NCc1ccco1)c1cc2nc(-c3ccc4c(c3)OCO4)cc(C(F)(F)F)n2n1	0
COC(=O)c1cc(COc2ccc3c4c(c(=O)oc3c2)CCCC4)c(C)o1	0
O=C(CSc1nc2c(c(=O)n1-c1ccc(Br)cc1)SCC2)NCc1ccco1	0
O=C(NCc1cn2ccccc2n1)c1ccco1	0
COc1ccc2ccccc2c1C1CC(=O)N2CN(Cc3ccco3)CSC2=C1C#N (stereo unspecified)	40
N#Cc1c(NC(=O)COC(=O)C2CC3C=CC2C3)oc(-c2ccccc2)c1-c1ccccc1 (stereo unspecified)	0
O=C(c1ccccc1)N1CCN(c2ccc([N+](=O)[O-])c(NCc3ccco3)c2)CC1	800
c1coc(-c2nc3nc4ccccc4nc3n2CC2CCCO2)c1 (stereo unspecified)	0
COc1ccc(S(=O)(=O)NC(CC(=O)NCc2ccc3c(c2)OCO3)c2ccco2)cc1 (stereo unspecified)	0
CC1CS(=O)(=O)CCN1N=Cc1ccc([N+](=O)[O-])o1 (stereo unspecified)	0[10 µg/mL]

Carrying on:
SMILES	quorum sensing
O=C(Cc1ccc(S(=O)(=O)N2CCCC2)s1)NC1CCCCCC1	0
O=C1c2ccccc2-c2onc3c(Oc4ccccc4)cc(O)c1c23	40
Oc1ccc2ccccc2c1CN1CCN(c2ccccc2)CC1	40
C=C(C)CN(CC)C(=O)CSc1nc2ncc(Cl)cc2[nH]1	0
COC(=O)[C@H](C)NC(=O)Nc1cc(Cl)ccc1C	200
c1ccc2c(c1)OCC(C1=NCCN1)O2 (stereo unspecified)	0[10 µg/mL]
COC(=O)c1c(NC(=O)C2CC2)sc2c1CCN(C(C)=O)C2	0
C=CCNc1nc(-c2ccccn2)nnc1-c1ccccc1	40
C/C=C/Cn1c(Br)nc2c1c(=O)[nH]c(=O)n2C	240
Cc1cc(C)c(S(C)(=O)=O)c(Oc2ccc(C(C)(C)C)cc2)n1	0
CCC(Cc1ccccc1)NC(=O)CN1C(=O)CSc2ncccc21 (stereo unspecified)	0
CC1=C(C(=O)OCc2ccccc2)C(c2ccco2)C2=C(CC(C)(C)CC2=O)N1 (stereo unspecified)	200
Cc1cccc(Cn2cc(SCC(=O)Nc3nccs3)c3ccccc32)c1	40
Cc1cc(C)c2c(n1)sc1c(O)cc(=O)[nH]c12	40
O=C(CCCN1CCC(n2c(=O)[nH]c3ccccc32)CC1)c1ccc(F)cc1	0[10 µg/mL]
Cc1cccc2c1-c1sc(C(=O)Nc3nccs3)cc1CO2	0
O=C(O)c1cccnc1	0[10 µg/mL]
COc1ccc(CNc2cccc(F)c2)cc1Br	40
O=c1cc(CO)oc(C(Nc2ccccn2)c2ccc(F)cc2)c1O (stereo unspecified)	0
CCOC(=O)c1ccc(NC(=O)CCC(=O)OC)cc1	0
Cc1cccc(OCc2nc3ccccc3c(=O)n2N)c1	0
COc1ccc(C2N3CC4(C)CN2CC(C)(C3)C4=O)cc1OC (stereo unspecified)	40
COc1cccc(NC(=O)C(NC2CCCC2)c2ccccc2)c1 (stereo unspecified)	0
COc1ccc(OC)c2sc(NC(=O)c3ccc(Cl)s3)nc12	0
COC(=O)Nc1c(C(=O)OC)cc(OC)c(OC)c1OC	0
CC(C)N(C(=O)CSc1nnc(-c2cc3ccccc3cc2O)n1Cc1ccco1)C(C)C	200
COc1ccc(OC)c(-c2cc(C(=O)Nc3c(C)nn(Cc4ccccc4C)c3C)no2)c1	40
O=C(COc1ccccc1)Nc1nnc(-c2ccc3c(c2)CCCC3)o1	0
O=C(c1ccc(S(=O)(=O)N2CCOCC2)cc1)N1CCN=C1SCc1cccnc1	?
CCCc1cc2c(cc1NS(=O)(=O)c1ccc(CCNC(C)=O)cc1)OCO2	80
CC(C)(C)OC(=O)N1Cc2ccccc2C[C@H]1C(=O)O	0
Cc1c(Nc2ncccc2C(=O)O)cccc1C(F)(F)F	0[10 µg/mL]
CCOc1cc(C(=O)OCC(=O)c2c(N)n(C)c(=O)n(C)c2=O)cc(OCC)c1OCC	0
COc1cc2c(=O)n(Cc3ccccc3)c(=O)n(CC(=O)NCCc3ccccc3)c2cc1OC	0
Cc1ccsc1C1NC(=O)c2c(sc3c2CCN(C)C3)N1 (stereo unspecified)	0
O=S(=O)(Cc1cc(Sc2ccc(Cl)cc2)nc(-c2ccccc2)n1)c1ccccc1	200
COc1cc(C2C(C(=O)Nc3ccccc3OC)=C(C)Nc3ncnn32)ccc1O (stereo unspecified)	0
CCCS(=O)(=O)C(=C(Nc1ccccc1)Nc1ccccc1)S(=O)(=O)CCC	40
